Bst PK mod: modulators of Bacillus stearothermophilus pyruvate kinase. partly purified Bacillus stearothermophilus pyruvate kinase, luminescence ATP production; ribose 5-phosphate activator present at AC10. Potency, µM. 51,000 compounds, 1.2% hits; in the data active means potency below about 11 µM; inconclusive means mostly about 12 µM to 25 µM; inactive means weaker than that;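 the screen sought inhibitors and activators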;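 note: potency is the fitted concentration of half-maximal effect; scaled between full activation by ribose 5 phosphate and full inhibition by luteolin; about four in five hits inhibit and the cells do not say which; series up to 57 µM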
TsaE inh: displaces an ADP probe from E. coli YjeE (TsaE); P0AF67; purified YjeE, fluorescence polarisation of a bound ADP probe; Potency, µM; 71,000 compounds, 0.05% hits; AID 605; active = well fitted falling curve; inconclusive = weaker or top-dose-only fall, or a rising curve; inactive = flat or poorly fitted curve;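 note: top concentration of the series not given in the record; excess ADP was the control for the full effect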
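Purified YjeE (10 uM) with BODIPY Texas Red-labeled ADP probe (2 uM); compounds pin-transferred, 15 min at room temperature. Binding inhibition read as decreased fluorescence polarization; ADP titration as control.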
* hit, by the source's call; i = inactive; ? = inconclusive; nt = not tested or not shown. This is a subset; count on the stated rates, not on these rows.

SMILES	Bst PK mod	TsaE inh
CC(C)Cn1c2c(c(O)c(C(=O)Nc3nccs3)c1=O)CCCC2	>57	i
O=C(O)CCN1C(=O)C2C3C=CC(C3)C2C1=O (centres undefined)	>57	i
CCOC(=O)N1CCC(NC(=O)Cn2cccc2C(=O)c2ccccc2)CC1	>57	i
CC1(C)Cc2ccccc2-c2nnc(SCC(=O)N3CCc4ccccc43)n21	>57	i
COc1ccccc1N1CCN(C(=O)c2ccc(NC(C)=O)cc2)CC1	>57	i
COc1ccc(-n2c(N3CCN(C)CC3)nc3sc4c(c3c2=O)CCCCC4)cc1	>57	i
O=C(COc1ccccc1)Nc1ccccc1C(=O)NCc1ccco1	>57	i
O=C(c1cc2nc(C3CC3)cc(C(F)(F)F)n2n1)N1CCCC1	>57	i
N#CCCn1c(=O)c(-c2ccc(F)cc2)nc2cnc(N3CCNCC3)nc21	nt	i
COc1cccc(CNc2ccc(F)c(Cl)c2)c1O	>57	i
CC(=O)c1cc2c(cc1NC(=O)CN1CCN(C(=O)c3ccco3)CC1)OCO2	nt	i
O=C(c1csnn1)N1CCC2(CCN(Cc3cc(C(F)(F)F)cc(C(F)(F)F)c3)CC2)CC1	nt	i
COc1ccc2nc3c(cc2c1)c(NC(=O)C1CCCO1)nn3CC(C)C (centres undefined)	>57	i
CC1=C(C(=O)OCC2CCCO2)C(c2ccccc2OC(C)C)C2=C(CC(c3ccco3)CC2=O)N1 (centres undefined)	>57	i
Cc1ccc(C(=O)Cn2nnc(-c3ccccc3-n3cnnn3)n2)cc1	4.67*	i
O=C(O)CC(C(=O)NC1CCCCC1)C1CCCO1 (centres undefined)	nt	i
CCCc1cc(=O)n2[nH]c(-c3cc(OC)c(OC)c(OC)c3)nc2n1	>57	i
O=S(=O)(NC1CC1)c1ccc(S(=O)(=O)N2CCN3CCCC3C2)cc1 (centres undefined)	>57	i
COC(=O)c1c(NC(=O)COC(=O)Cn2cnc3ccccc32)sc(C)c1C	>57	i
COc1cc2[nH]c(=O)n(CCCC(=O)NCCc3ccccc3)c(=O)c2cc1OC	>57	i

Another view of part of the listing above.
| Bst PK mod | TsaE inh | smiles |
| --- | --- | --- |
| 4.67* | i | Cc1ccc(C(=O)Cn2nnc(-c3ccccc3-n3cnnn3)n2)cc1 |
| nt | i | O=C(O)CC(C(=O)NC1CCCCC1)C1CCCO1 (centres undefined) |

The list continues.
SMILES	Bst PK mod	TsaE inh
CN1C(=O)C(O)(CC(=O)c2cccnc2)c2ccccc21 (centres undefined)	nt	i
CCCCn1c(C(C)NC(=O)COC)nc2ccccc21 (centres undefined)	>57	i
COc1cc2c(cc1NC(=O)COC(=O)C1CC(=O)N(Cc3ccco3)C1)oc1ccccc12 (centres undefined)	>57	i
Cc1ccc2cc(CN(C(=O)c3ccco3)c3ccccc3C)c(=O)[nH]c2c1	>25.6	nt
CCOC(=O)c1sc(NC(=S)n2cc(C)cn2)c(C(=O)OCC)c1C	>57	i
O=C1CCC(C(=O)Nc2cccc(C(F)(F)F)c2)N1 (centres undefined)	nt	i
CC(=O)Nc1ccc2c(c1)nc(CCN1CCN(C)CC1)n2C	>57	i
c1ccc(CNc2nc3ccccc3n2CCN2CCOCC2)nc1	>57	i
N/C(Cn1nnc(-c2ccccc2)n1)=N\O	>57	i
O=C(NCCSCc1ccco1)Nc1cccc(Cl)c1	>57	i
NC(=O)c1nn(-c2ccccc2)nc1N	i	i
CCOC(=O)N1CCC(c2nc3ccccc3[nH]2)CC1	>57	i
COc1cccc(/C(O)=C2/C(=O)C(=O)N(c3cc(C)on3)C2c2cccs2)c1 (centres undefined)	>57	i
CN1C(C)(C)CCCC1(C)C	nt	i
Cc1ccc(C(=O)OCC(=O)NCc2ccc3c(c2)OCO3)s1	>57	i
C=C(C)COc1ccc(-c2[nH]ncc2-c2ccc(OC)c(OC)c2)c(O)c1	>57	i
COC(=O)[C@H](C)NC(=O)Nc1ccccc1C(F)(F)F	>57	i
O=C(CN1CCOCC1)Nc1ccccc1NC(=O)C1CCN(c2ncccn2)CC1	>57	i
Cc1noc(C)c1S(=O)(=O)N(CC(=O)NCc1ccc2c(c1)OCO2)c1ccc(C(C)C)cc1	nt	i
COc1ccc(N(CC(=O)Nc2ccc(F)c(Cl)c2)S(=O)(=O)c2c(C)noc2C)cc1	>57	i

Printed as active in Bst PK mod, among the entries above:
SMILES	Bst PK mod	TsaE inh
Cc1ccc(C(=O)Cn2nnc(-c3ccccc3-n3cnnn3)n2)cc1	4.67*	i

Remaining list, next part
SMILES	Bst PK mod	TsaE inh
CCOC(=O)c1c(C)c(C(=O)NCCCOC)c(C)n1C	>57	i
COc1ccccc1NC(=O)N1CCCC1C(=O)Nc1ccc(NC(C)=O)cc1 (centres undefined)	>57	i
CCN=C(NCC)SC1CC(=O)N(c2cccc(OCC)c2)C1=O (centres undefined)	nt	i
CC(C)NS(=O)(=O)c1ccc(OCC(=O)Nc2ccccc2F)cc1	>57	i
CC1CCN(c2ncccc2C(=O)O)CC1	>57	i
Cc1c(CC(C)(C)C(=O)O)n(Cc2ccc(Cl)cc2)c2ccc(F)cc12	nt	i
Cc1ccc(N2CC(C(=O)OCC(=O)C(C)(C)C)CC2=O)cc1C (centres undefined)	>57	i
Cc1nc2ccccc2c(=O)n1NS(C)(=O)=O	>57	i
O=C(COc1ccc(Cl)cc1)Nc1ncccn1	nt	i
c1nc(COc2nsnc2N2CCOCC2)cs1	>57	i
CCOC(=O)Cc1c(C)nc(-c2ccccc2)[nH]c1=O	>57	i
O=C(CN1C(=O)NC2(CCCCC2)C1=O)NCCC1=CCCCC1	>57	i
CCCCc1c(C(=O)O)cc(OC)cc1C(=O)O	>57	i
O=C(NC1CC2CCCC(C1)N2Cc1cccs1)N1CCOCC1 (centres undefined)	>57	i
O=C(Nc1cccc2cccnc12)c1cccc(N2C(=O)CCC2=O)c1	nt	i
O=C(CN1C2CCC1CC(NC(=O)Nc1ccccc1)C2)NCc1ccco1 (centres undefined)	>57	i
CCOC(=O)CNC(=O)Nc1cccc(Cl)c1C	>57	i
O=S(=O)(c1cc(F)cc(F)c1)N1CCN(c2ncccn2)CC1	?	i
c1ccc(CC2CCN(C(c3cccs3)c3nnnn3C3CCCC3)CC2)cc1 (centres undefined)	>57	i
CCOC(=O)c1sc(N)c(C(=O)OCC)c1COC(=O)C1CC(=O)N(Cc2ccco2)C1 (centres undefined)	>57	i

Reprinted at random: 5 compounds from above, in no set order.
SMILES	Bst PK mod	TsaE inh
COc1cc2c(cc1NC(=O)COC(=O)C1CC(=O)N(Cc3ccco3)C1)oc1ccccc12 (centres undefined)	>57	i
O=C(c1cc2nc(C3CC3)cc(C(F)(F)F)n2n1)N1CCCC1	>57	i
COc1ccc(-n2c(N3CCN(C)CC3)nc3sc4c(c3c2=O)CCCCC4)cc1	>57	i
C=C(C)COc1ccc(-c2[nH]ncc2-c2ccc(OC)c(OC)c2)c(O)c1	>57	i
NC(=O)c1nn(-c2ccccc2)nc1N	i	i

Other records.
SMILES	Bst PK mod	TsaE inh
Cc1cc(C)c2nc(N3CCCC(C(=O)NCCN4CCOCC4)C3)sc2c1 (centres undefined)	nt	i
O=C(Nc1ccc2nc[nH]c2c1)c1ccco1	nt	i
COCCn1nnnc1CN1CCC(O)(c2cccc(C(F)(F)F)c2)CC1	>57	i
Cc1ccc(C(=O)Nc2c(C)n(C)n(-c3ccccc3)c2=O)cc1S(=O)(=O)N1CCOCC1	>57	i
COc1ccc(OC)c(S(=O)(=O)N(C)CC(=O)N2CCN(c3ccccc3)CC2)c1	>57	i
NC(=O)CC1NC(=O)c2ccccc21 (centres undefined)	nt	i
CCOC(=O)c1c(C)oc2c(F)c(F)c(F)c(F)c2c1=O	>57	i
CCOc1ccccc1NC(=O)CSc1nnc(-c2ccco2)n1Cc1ccco1	>57	i
C[C@@]12C[C@H](O)[C@@H]3[C@H](CCC4=CC(=O)CC[C@]43C)[C@H]1CC[C@@H]2c1csc(-c2ccccc2)n1	nt	i
O=C(CCCSc1nc2ccccc2s1)Nc1nccs1	>57	i
Cc1nnc(NC(=O)NC(C)N2C(=O)C3C4C=CC(C4)C3C2=O)s1 (centres undefined)	>57	i
CCOC(=O)C1CCN(C(=O)Nc2ccccc2Cl)CC1	nt	i
COC(=O)[C@H](CCSC)NC(=O)N1CCN(c2cccc(C(F)(F)F)c2)CC1	>57	i
O=c1[nH]c2c(cc1CNCCN1CCOCC1)c(-c1cccc(F)c1)nn2-c1ccccc1	>57	i
CN(C)CCCNc1cc(O)c2c(c1O)C(=O)c1ccccc1C2=O	nt	i
COc1ccc(C(=O)COC(=O)CN2CC(=O)Oc3ccccc32)cc1Br	>57	i
Cc1nonc1NC(=O)CSc1nc2cc(Cl)ccc2c2c1CCCC2	>57	i
COc1ccc(NC(=O)N2CCCC3(CCN(C(=O)c4cnccn4)CC3)C2)cc1	nt	i
COc1ccc(CCNC(=O)CCN2C(=O)COc3ccccc32)cc1OC	>57	i
CCN(CC)S(=O)(=O)c1ccc2[nH]cc(C(=O)NCCc3ccc(OC)c(OC)c3)c(=O)c2c1	>57	i
CCOC(=O)c1sc(NC(=O)CN2CCCC2)c(C(=O)OCC)c1C	>57	i
O=C(Cc1ccccc1F)Nc1nc(-c2cccs2)cs1	nt	i
CC1C=CC(C)C(C(=O)O)C1C(=O)O (centres undefined)	nt	i
COc1cc(C(=O)CSc2nnc(-c3ccc(O)cc3)n2CC2CCCO2)ccc1NC(C)=O (centres undefined)	>57	i
c1ccc(CN2CCN(c3ncnc4c3[nH]c3ccccc34)CC2)cc1	i	nt
COc1ccc(CN(Cc2ccccn2)C(=O)CN2C(=O)C(C)Oc3ccccc32)cc1 (centres undefined)	>57	i
Cc1ncoc1C(=O)NCc1ccccc1Cl	>11.4	i
N=C(N)SCc1cc(Cl)cc(Cl)c1O	nt	i
COC(=O)c1ccc2c(=O)n(CCC3=CCCCC3)c(SCC(=O)N3CCCC3)nc2c1	>57	i
O=C(Cc1ccc(Cl)cc1)Nc1ccc(N2CCN(C(=O)c3ccco3)CC2)c(Cl)c1	>57	i
c1ccc(-c2nnc(SCc3nc4ccccc4[nH]3)n2Cc2ccco2)nc1	>57	i
CCOC(=O)c1sc(NC(=O)CSc2ccccn2)c(C#N)c1C	>57	i
CCOC(=O)C1CCN(C(=O)CNS(=O)(=O)c2cccs2)CC1	>57	i
O=C(COC(=O)c1cnccn1)c1ccc2c(c1)CCCC2	nt	i
Cc1ccc(NCc2nnc3n2CCCCC3)cc1	>57	i
Clc1cccc(N2CCN(CCNc3nc4ccccc4n4cnnc34)CC2)c1	>57	i
C=CCNS(=O)(=O)c1ncnc2nc[nH]c12	nt	i
O=C(COc1ccc(S(=O)(=O)NCc2ccccc2)cc1)NCC1CCCO1 (centres undefined)	>57	i
CCN(CC)CCCN1C(=O)C(O)=C(C(C)=O)C1c1ccc(OC)cc1OC (centres undefined)	nt	i
CC(=O)NC(NC(C)=O)c1ccc(Br)cc1	>57	i

Some values from the list.
`Cc1ccc(NCc2nnc3n2CCCCC3)cc1` – Bst PK mod: >57
`Cc1ncoc1C(=O)NCc1ccccc1Cl` – Bst PK mod: >11.4
`COc1ccc(CN(Cc2ccccn2)C(=O)CN2C(=O)C(C)Oc3ccccc32)cc1` (centres undefined) – Bst PK mod: >57
`CCOC(=O)C1CCN(C(=O)CNS(=O)(=O)c2cccs2)CC1` – Bst PK mod: >57

(cont.)
SMILES	Bst PK mod	TsaE inh
CCOC(=O)c1c(NC(=O)Cn2nnc3ccccc32)sc2c1CCC(C)C2 (centres undefined)	>57	i
Cc1ccc(-n2nnnc2SCC(=O)Nc2ccc3c(c2)COC3=O)cc1C	>57	i
Cc1nn(Cc2ccc(Cl)cc2)c(C)c1NC(=O)c1noc2c1CCCCC2	>57	i
COC(=O)c1ccc(OC)c(CSc2nnc(-c3ccc(C)cc3)o2)c1	>57	i
Cc1cc(C(=O)NCc2cccnc2)n(-c2ccccc2)n1	nt	i
COc1ccccc1OC(=O)C1CC(=O)N(c2ccc(Cl)cc2)C1 (centres undefined)	>57	i
COc1ccc(N(C(=O)CNC(=O)c2ccco2)C(C(=O)NC2CCCCC2)c2ccco2)cc1 (centres undefined)	>57	i
O=C(O)C1CSC2c3ccccc3C(=O)N12 (centres undefined)	>57	i
N#CC1=C(N)N2C(=C(C#N)C13CCCCC3)SC1CCCCC12O (centres undefined)	>57	i
Cc1ccc(N(CC(=O)O)S(C)(=O)=O)cc1Cl	>57	i
N#CN(CC(N)=O)c1nc(N2CCCCC2)nc(N2CCCCC2)n1	>57	i
O=C(C1CCC(=O)N1C1CCCCC1)N1CCN(c2ccc(F)cc2)CC1 (centres undefined)	>57	i
CCN(CC)S(=O)(=O)c1ccc2c3c(cccc13)C(=O)N2	nt	i
Cn1c(C(C#N)C(=O)Cc2cccc3ccccc23)nc2ccccc21 (centres undefined)	>57	i
CCOC(=O)C1CCCN(C(=O)CC(C)c2ccccc2)C1 (centres undefined)	nt	i
NC(=O)C1CCN(CC(=O)c2c[nH]c3ccc(F)cc23)CC1	>57	i
O=c1c2ccccc2c(C=Nc2ccc(Cl)cn2)c(O)n1-c1cc(Cl)ccc1N1CCOCC1	>57	i
CCC(=O)Nc1cc(C(=O)NCC2CCCN2CC)c(OC)cc1N(C)C (centres undefined)	nt	i
CCN(CC)S(=O)(=O)c1ccc(C(=O)N2CCN=C2SC)cc1	nt	i
CC(NC(=O)c1cccs1)c1ccc2c(c1)OCO2 (centres undefined)	>57	i
CCCn1c(-c2ccc(F)cc2)nc2c(NCC(C)(C)CN(C)C)nc(C)nc21	nt	i
Cc1csc(NC(=O)C2CCCN(S(=O)(=O)c3cnc[nH]3)C2)n1 (centres undefined)	nt	i
